Assay outcomes (PubChem BioAssay)
Calb biofilm kill: mixture kills Candida albicans biofilm cells | C. albicans biofilm persisters + clotrimazole, fluorescence viability; primary screen in compound mixtures of four per well | inhibition, % at 7.6 µM | hit rate 0.02% among 120,000 | AID 1242;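 active = inhibition above 30.3% in the primary screen of four-compound pools, then above 30% when the compound was retested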;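 also: compounds exposed to preformed 24 h biofilms for 48 h; the number belongs to the whole pool; some results filed as inactive read as strong as hits; inactives centre near 12; 0% = biofilm with clotrimazole alone and 100% = kill control; retested singly at about 60 µM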
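Probe or stimulus – Clotrimazole 50 µg/mL co-treatment · System – C. albicans biofilms · Schedule – 24 h biofilm formation, then 48 h compound exposure, 37 °C · Evaluation – percent inhibition of biofilm viability · Technique – 2-h Alamar Blue fluorescence, 535/590 nm excitation/emission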
* hit, by the source's call.

SMILES | Calb biofilm kill
COc1ccc(C2CC2/C(=N/O)c2ccccn2)cc1 (stereo unspecified) | 11
CC(C)(C)NS(=O)(=O)c1ccc(NC(=O)Cc2ccccc2[N+](=O)[O-])cc1 | 4
Cc1ccc(-c2c[n+](CC(=O)OCc3ccccc3)c3n2CCC3)cc1 | 5
O=C(Nc1ccc(C(F)(F)F)cc1-c1ccccc1)c1ccccc1 | 11
CN(C)CCCNC(=O)/C(=C\C=C\c1ccccc1)NC(=O)c1ccc([N+](=O)[O-])cc1 | 21
COCCCNC(NC(=O)c1ccc(Br)cc1)C(Cl)(Cl)Cl (stereo unspecified) | 21
CC(C)(C)NC(=O)c1ccc(NC(=O)CSc2ccccc2)cc1 | 15
COc1ccccc1CNCc1cc(OC)c(OC)c(OC)c1 | 8
Cc1ccc(SC(=O)c2c([N+](=O)[O-])c(C)nn2C)cc1 | 6
COc1cccc2[nH]c3c(N4CCC5(CC4)OCCO5)ncnc3c12 | 24
Cc1csc(NC(=O)C2=NN(c3ccccc3)C(=O)CC2)n1 | -9
CCOc1cc(N2CCOCC2)c(OCC)cc1NC(=O)CN1C(=O)NC(CC(C)C)C1=O (stereo unspecified) | -1
COc1ccc2[nH]c(=O)c(CN(Cc3cccs3)C(=S)Nc3ccccc3)cc2c1 | 14
C[N+](C)(CC#Cc1ccccc1)CC(=O)c1ccccc1 | 20
O=C(NC(=S)NCC1CCCO1)c1cccc([N+](=O)[O-])c1 (stereo unspecified) | -7
NC(=O)c1ccc(Oc2ccc(Cl)cc2)c([N+](=O)[O-])c1 | -3
CCOC(=O)C(=CNc1ccccc1Cl)C(=O)OCC | 11
Cc1ccc(/C=N/NC(=O)CSc2nnc(-c3ccc(Cl)cc3)n2-c2ccccc2)o1 | 9
COC(=O)c1cc(OC)nc2ccc(Br)cc12 | 12
CC1CCCN(c2nc3nonc3nc2Nc2ccccc2F)C1 (stereo unspecified) | 3
O=C(/C=C/c1ccccc1Cl)N(c1ccccn1)C1CCCCC1 | 1
Cc1cc(=O)[nH]c(-c2cccs2)n1 | 17
C=CCNC(=O)CN(c1cc(Cl)ccc1OC)S(=O)(=O)c1ccc(C)c([N+](=O)[O-])c1 | -4
Cc1ccc(NC(=O)N2CCSc3ccccc32)cc1 | 16
COc1ccc(CNC(=O)CSCc2c(F)cccc2Cl)cc1 | 0
COCCNC(=O)/C(C#N)=C/c1cccc(/C=C(\C#N)C(=O)NCCOC)c1 | 11
CCOC(=O)N1CCN(C(=O)Nc2ccc3nccnc3c2)CC1 | 20
Cc1ccc(C(NC(=O)NC(C)c2ccccc2)C(Cl)(Cl)Cl)cc1F (stereo unspecified) | 17
C=CCNC(=S)NNC(=O)COc1c(Cl)cc(Cl)cc1Cl | 0
O=C(O)c1nn(CC(=O)N2CCCCCC2)c(=O)c2ccccc12 | 12
Cc1cc2n(n1)SC(Nc1cccc3ccccc13)N2 (stereo unspecified) | 13
N#Cc1ccc[n+](CC(=O)c2ccc(NC(=O)c3ccccc3)cc2)c1 | 15
CCOC(=O)C1CCN(c2nc(N)c3c(N)nc(SCC(=O)O)cc3c2C#N)CC1 | 8
COc1cc(OC)c(C2SCCS2)c(OC)c1 | 17
Nc1c2c(nc3ccc(Br)cc13)N(C1CCCCC1)CC2 | 0
CCOC(=O)c1cnc2c(OC)cccc2c1NCc1cccnc1 | 12
CC(=O)C1=C(C)NC2=C(C(=O)CC(C)(C)C2)C1C (stereo unspecified) | 17
N#Cc1cc([N+](=O)[O-])ccc1N1CCN(c2ccccc2O)CC1 | 9
Cc1[nH]nc(-c2ccc(O)cc2O)c1-c1nc2ccccc2s1 | 19
O=C(Cn1cnc2c(nnn2Cc2ccc(F)cc2)c1=O)NCc1ccc2c(c1)OCO2 | 15
c1cncc(-c2nc(N3CCOCC3)c3c4c(sc3n2)CCC4)c1 | 18
COc1cc(C(=O)NCCC(=O)NC(C)C)cc(OC)c1OC | -5
CCOC(=O)c1c(NC(=O)CS(=O)(=O)c2cn(CC)c3ccccc23)sc2c1CCCC2 | 12
CCOc1ccc(NC(=O)CN(C)S(=O)(=O)c2cnc[nH]2)cc1 | 14
CC1CCCC(C)N1C(=O)c1cc2ncc(CCCl)cn2n1 (stereo unspecified) | 7
CCN1C(=O)[C@H]2[C@H]3[C@H](O)[C@H](O)C/C(=N\OC[C@@H](C)[C@H](OCc4ccccc4)C(C)C)[C@@H]3CC[C@H]2C1=O | 6
Cc1ccc(C)c(NC(=S)N/N=C/C(C)c2ccccc2)c1 (stereo unspecified) | -5
Cc1cc(O)ccc1N/C=C1\CCCC1=O | 16
O=C(c1ccc(-c2ccc([N+](=O)[O-])cc2)o1)N1CCCCC1 | 7
CCOC(=O)C1CCCN(C(=O)/C=C/c2cc(OC)c(OC)c(OC)c2)C1 (stereo unspecified) | 14

The final 2 records of the section above are carried over, then new ones follow:
SMILES | Calb biofilm kill
O=C(c1ccc(-c2ccc([N+](=O)[O-])cc2)o1)N1CCCCC1 | 7
CCOC(=O)C1CCCN(C(=O)/C=C/c2cc(OC)c(OC)c(OC)c2)C1 (stereo unspecified) | 14
Cc1ccc(C=Nc2ccccc2C(N)=O)s1 | 6
O=C1CC(N2CCOCC2)C(=O)N1c1ccc(Cl)cc1 (stereo unspecified) | 9
COc1cc(/C=N/Nc2ccc(C(F)(F)F)cn2)ccc1O | 4
CCOc1ccc(CC(=O)NCc2ccc3c(c2)cc(C)n3C)cc1 | -5
COC(=O)c1cccc(NC(=S)Nc2ccccc2Cl)c1 | 7
COc1ccc(C(=O)NC(=S)Nc2ccc(CN3CCOCC3)cc2)cc1OC | 19
CC12CCC(C(=O)Nc3cc(Cl)ccc3Cl)(C(Br)C1=O)C2(C)C (stereo unspecified) | 10
COc1cccc(CN2CCN(Cc3ccc4c(NC(C)=O)cccc4n3)CC2CCO)c1 (stereo unspecified) | 11
CCn1c(=O)c(C(=O)CN2CCN(S(=O)(=O)c3ccc(C)cc3C)CC2)c(N)n(Cc2ccccc2)c1=O | 21
Cc1cc(S(=O)(=O)n2ccnc2)c(Cl)cc1Cl | 15
CCOC(=O)COc1cccc2c(=O)n(CC(=O)NCCc3ccc(OC)c(OC)c3)ccc12 | 10
O=C(NCCCN1CCCC1=O)c1cccc(Oc2ccccc2)c1 | 14
COc1cc(OC)c(C(=O)OC(C)C(=O)Nc2cccc(C(F)(F)F)c2)cc1OC (stereo unspecified) | 15
COc1cc(/C=N/NC(=O)c2cccnc2)ccc1OCC(=O)Nc1ccccc1Cl | -3
C=CCn1c(SCC(=O)c2[nH]c(C)c(C(=O)OCC)c2C)nc2scc(-c3ccc(OC)c(OC)c3)c2c1=O | 15
Cc1ccc(S(=O)(=O)N2CCN(Cc3ccsc3)CC2)cc1 | 7
COC(=O)c1ccc(C(=O)OC)c(NC(=O)CN(c2ccccc2)S(=O)(=O)N(C)C)c1 | -2
Cc1ccc(C)n1-c1ccc(C(=O)NCc2cccnc2)cc1 | 18
CCN(CC)c1ccc(NC(=O)c2ccccc2)cc1S(=O)(=O)Nc1ccccc1OC | 10
COc1ccccc1/C=N/NC(=O)c1ccc(NC(=O)c2cccc([N+](=O)[O-])c2)cc1 | -2
O=C(O)c1cccc(NC(=O)c2ccc3c(c2)C(=O)N(Cc2ccco2)C3=O)c1 | 32
CCCn1nc(NC(=O)c2ccco2)c2cc3ccccc3nc21 | 13
Cc1cc(C(=O)Nc2ncc(C)s2)c2ccccc2n1 | 4
CCCCCc1ccc(OCCCC[n+]2cccc(C)c2)c(CCCCC)c1 | 7
CCc1nc(SCC(=O)OC(C)C)c2ccccc2n1 | 18
N#Cc1cc(Oc2ccccc2)c(-n2nnc3ccccc32)cc1C#N | 11
O=C(/C=C/c1cccc(O)c1)c1ccc(N2CCOCC2)cc1 | 17
COc1c(S(=O)(=O)Nc2cccnc2)ccc(Cl)c1Cl | 11
COc1ccc(-n2c(O)c(/C=N/NS(=O)(=O)c3ccc(C)c([N+](=O)[O-])c3)c3ccccc3c2=O)cc1OC | 20
CC(C)(C)OC(=O)NCCCCCNC(=O)c1[nH]cnc1C(=O)N[C@@H](CCCCNC(=O)OC(C)(C)C)C(=O)OC(C)(C)C | 16
COc1cccc(CC2(CO)CCN(C(=O)NCCc3ccccc3)CC2)c1 | 13
O=C(O)c1ccc(/C=C/c2nc3sc4c(c3c(=O)[nH]2)CCC4)cc1 | 15
O=C(/C=C/c1c(F)cccc1Cl)c1ccc(O)cc1 | 29
CC1CCc2cc(F)ccc2N1S(=O)(=O)c1ccc(Cl)nc1 (stereo unspecified) | 18
CCCCn1c(-c2csc(CC)c2)n[nH]c1=S | 14
O=C1OCCC1Sc1nnnn1-c1ccc(Cl)cc1 (stereo unspecified) | 10
C=CCn1c(SCC(=O)c2c(C)[nH]c3ccccc23)nnc1-c1ccncc1 | 26
CC(C)C1/C(=N/O)CC(c2ccccc2)NC1c1ccccc1 (stereo unspecified) | -8
O=c1[nH]c2ccccc2nc1C(F)(F)F | 11
CCCCNC(=O)CNC(=S)N(Cc1ccc(C)cc1)Cc1ccco1 | 20

The closing five entries of the part before open the next one.
SMILES | Calb biofilm kill
O=C1OCCC1Sc1nnnn1-c1ccc(Cl)cc1 (stereo unspecified) | 10
C=CCn1c(SCC(=O)c2c(C)[nH]c3ccccc23)nnc1-c1ccncc1 | 26
CC(C)C1/C(=N/O)CC(c2ccccc2)NC1c1ccccc1 (stereo unspecified) | -8
O=c1[nH]c2ccccc2nc1C(F)(F)F | 11
CCCCNC(=O)CNC(=S)N(Cc1ccc(C)cc1)Cc1ccco1 | 20
COc1ccc(CSc2nnc(NC(C)=O)s2)cc1[N+](=O)[O-] | 5
CC1CCCCN1C(=O)Nc1ccccc1Cl (stereo unspecified) | 23
COc1ccc(-c2csc3ncn(-c4cccc(C)c4)c(=O)c23)cc1OC | 7
Cc1ccc(NC(=O)N2CCCn3c(SCC(=O)c4ccccc4)nnc32)cc1 | 10
CC(=O)NC(CCCN1C(=O)c2ccccc2C1=O)c1nnn(C)n1 (stereo unspecified) | 18
CCOC(=O)N1CCN(S(=O)(=O)c2ccc(C)cc2)C1 | 2
Cc1ccc(C(=O)NNC(=O)CNc2cccc(Cl)c2)cc1 | 10
O=C(N/N=C/c1ccc(OC(F)F)cc1OC(F)F)c1ccc(Br)cc1 | 12
CCN(CC)c1ccc(/C=N/N2CCOCC2)c(O)c1 | 11
COCCNC(=S)N(CCc1c(C)[nH]c2ccc(F)cc12)Cc1cccs1 | -6

Some of the entries so far, comma-delimited:
Structure,Calb biofilm kill
CCOC(=O)N1CCN(S(=O)(=O)c2ccc(C)cc2)C1,2
COCCNC(=S)N(CCc1c(C)[nH]c2ccc(F)cc12)Cc1cccs1,-6

(cont.)
SMILES | Calb biofilm kill
C=CCNC(C(=O)Nc1cccc(OC)c1)c1ccccc1 (stereo unspecified) | 12
CCOc1ccc(N(CC(=O)N2CCC(Cc3ccccc3)CC2)S(C)(=O)=O)cc1 | 19
CC1CCCN(C(=O)C2CCN(CC(C)c3ccccc3)CC2)C1 (stereo unspecified) | 11
CC(C(=O)NCc1ccccn1)c1ccc([N+](=O)[O-])cc1 (stereo unspecified) | 0
CCC(=O)O[C@]1(C(=O)CCl)[C@@H](C)C[C@H]2[C@@H]3CCC4=CC(=O)C=C[C@]4(C)[C@@]3(F)[C@@H](O)C[C@@]21C | -3
CCOc1cc(C2NC(=O)NC(c3ccccc3)=C2C(C)=O)ccc1OC(C)=O (stereo unspecified) | 6
C/C=C/C=C/C(=O)OCC(=O)Nc1ccc(Cl)cc1 | 19
Cc1cc2nccc(-c3cccnc3)n2n1 | 5
CCn1cc(C(=O)O)c(=O)c2cc(F)c(N3CCN(C(=S)Nc4ccc(OC)cc4)CC3)cc21 | 21
Cc1ccc(NC(=O)Nc2ccccc2)cc1[N+](=O)[O-] | 6

In the list so far, these have a cyano group.
SMILES | Calb biofilm kill
COCCNC(=O)/C(C#N)=C/c1cccc(/C=C(\C#N)C(=O)NCCOC)c1 | 11
N#Cc1ccc[n+](CC(=O)c2ccc(NC(=O)c3ccccc3)cc2)c1 | 15
CCOC(=O)C1CCN(c2nc(N)c3c(N)nc(SCC(=O)O)cc3c2C#N)CC1 | 8
N#Cc1cc([N+](=O)[O-])ccc1N1CCN(c2ccccc2O)CC1 | 9
N#Cc1cc(Oc2ccccc2)c(-n2nnc3ccccc32)cc1C#N | 11

(continued)
SMILES | Calb biofilm kill
COC(C/C=C\[C@@H](O)COCc1ccccc1)OC | 17
Cc1ccc2nc(NC(=O)Cn3nc(C)c([N+](=O)[O-])c3C)sc2c1 | 9
CCc1ccc(NC(=O)Cn2nnc(C(=O)NCc3cccs3)c2N)cc1 | 10
CNc1nc(C23CC4CC(CC(C4)C2)C3)cs1 | 18
O=C(c1ccc(Cl)nc1)N1CCN(S(=O)(=O)c2ccccc2)CC1 | 18
CCn1cc(/C=N\NC(=O)c2ccc(Cl)cc2)cn1 | 13
C/C(=N\OCC(=O)Nc1nc2ccccc2s1)c1ccccc1 | 9
CN(C)CCCN(C(=O)COc1ccccc1)c1nc2c(F)cccc2s1 | 10
CCOc1ccc(CCNC(=O)COC(=O)c2ccccc2O)cc1OCC | 17
Cc1cccc2cc(CN(CC3CCCO3)C(=O)c3ccco3)c3nnnn3c12 (stereo unspecified) | 10
COc1ccc(C)cc1NC(=O)C(Sc1nnc(Nc2cc(C)ccc2OC)s1)c1ccccc1 (stereo unspecified) | 19

The list is partial; rates above refer to the full screens.
